miR-21 FLuc: miR-21 reporter, rising signal; HeLa miR-21 FLuc reporter, luciferase, 48 h; 340,000 tested, under 10 active; Potency, µM (series often up to 38.3 µM), for inactives: at the highest dose reporter change, positive = more light; active = well fitted rising curve with a large enough effect; inconclusive = small, poorly fitted or top-dose-only effect; inactive = no such curve, though single readings can be large or run the other way;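 further: % of control where 0% means no effect; miR-21 action dims this reporter so a rising signal means less miR-21 action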
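HeLa cells stably expressing CMV-driven firefly luciferase with a downstream miR-21 binding sequence, endogenously expressing miR-21, were treated with titrations (up to about 40uM final) for 48 hours at 37 degree Celsius. Luciferase luminescence was read after lysis.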
GLA inh pH 4.5: alpha-galactosidase A (human) inhibition, pH 4.5 | purified enzyme, 4-MU-alpha-Gal fluorescence, pH 4.5 | activity change, negative = inhibition, % at 105 µM | P06280 | 230,000 tested, under 10 active; inconclusive = small, poorly fitted or top-dose-only inhibition, or a rising curve; inactive = flat fitted curve, though single readings scatter; no compound was filed as active;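 further: 0% = full activity with enzyme and -100% = basal without enzyme; dose as in the result columns while the protocol names 77 µM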
Rango complex inh: inhibitors of Rango-importin beta complex formation; AID 540263; 0.031% of 340,000 active; Potency, µM (doses to about 92.2 µM), for inactives: at the top dose inhibition of complex formation; Rango CFP/YFP FRET sensor + importin beta, 45 min; active = rising FRET ratio curve, often small or poorly fitted; inconclusive = mostly compound fluorescence or quenching in the first reads; inactive = flat curves in all reads;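 further: potency means the concentration at half of the fitted maximal effect; 0% = DMSO wells and 100% = buffer wells lacking importin beta; nearly all actives have a fitted effect of over 15% in size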
Target sequence (Q14974 whole entry, looked up): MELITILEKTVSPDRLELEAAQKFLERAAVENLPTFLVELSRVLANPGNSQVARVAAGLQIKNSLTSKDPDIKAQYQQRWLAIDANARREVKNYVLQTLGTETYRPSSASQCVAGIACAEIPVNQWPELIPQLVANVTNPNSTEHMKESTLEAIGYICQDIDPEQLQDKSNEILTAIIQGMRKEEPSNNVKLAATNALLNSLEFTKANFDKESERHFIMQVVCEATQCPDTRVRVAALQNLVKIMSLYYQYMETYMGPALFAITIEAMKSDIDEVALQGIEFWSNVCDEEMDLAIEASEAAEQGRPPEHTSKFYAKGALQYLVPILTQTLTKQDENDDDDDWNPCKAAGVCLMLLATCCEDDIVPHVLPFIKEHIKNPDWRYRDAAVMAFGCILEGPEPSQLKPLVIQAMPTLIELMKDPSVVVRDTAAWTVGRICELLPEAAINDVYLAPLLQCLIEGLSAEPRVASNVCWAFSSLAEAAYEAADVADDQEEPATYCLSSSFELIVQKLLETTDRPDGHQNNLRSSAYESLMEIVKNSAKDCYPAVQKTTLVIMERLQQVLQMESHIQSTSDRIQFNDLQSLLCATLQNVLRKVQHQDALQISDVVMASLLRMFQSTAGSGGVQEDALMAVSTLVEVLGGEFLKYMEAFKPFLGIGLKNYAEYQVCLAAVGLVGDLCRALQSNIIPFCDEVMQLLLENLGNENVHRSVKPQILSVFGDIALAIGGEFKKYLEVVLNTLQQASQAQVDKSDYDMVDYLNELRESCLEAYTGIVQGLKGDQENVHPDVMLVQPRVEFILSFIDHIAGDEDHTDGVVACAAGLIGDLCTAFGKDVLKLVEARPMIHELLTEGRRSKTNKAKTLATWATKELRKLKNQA
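FRET biosensor Rango (snurportin 1 IBB between N-terminal EYFP and C-terminal Cerulean), 50 nM in PBS/1 mM DTT/0.02% Tween-20/0.1% BSA, preincubated 5 min RT with compound; 0.125 microM importin beta added, 45 min RT, CFP/YFP FRET ratio read.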
Rango dissoc inh: inhibitors of RanGTP-induced Rango-importin beta complex dissociation. O95149+P62826. Biochemical FRET Rango-importin beta, RanGTP-induced dissociation. Potency, µM (doses to about 46.1 µM), for inactives: top-dose activity change, negative = inhibition. 0.071% of 340,000 active; active means falling FRET ratio curve, often poorly fitted, with flat reads before Ran was added; inconclusive means other falling curves, or compound fluorescence or quenching; inactive means flat or rising ratio curve;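 further: potency means the concentration at half of the fitted maximal effect; % of control where 0% means no effect; nearly all actives have a fitted effect of over 45% in size; -100% = wells without RanGTP and RCC1; the record marks most hits as doubtful in a second field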
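Compounds preincubate 5 min with complex of recombinant Rango and importin beta in PBS with 1 mM DTT. Ran (0.6 uM) loaded with 2 mM GTP plus 0.2 uM RCC1 starts dissociation; FRET is recorded 45 min later.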
Numbers without * were called inactive. Not all compounds are listed (hit frequency here may not be typical).

For CCCCCC1CC(=O)N(Cc2ccc(Cl)cc2)C(=O)N1 (stereo not given) the results were miR-21 FLuc -5%, GLA inh pH 4.5 9, Rango complex inh -0.2% and Rango dissoc inh -19%.
For CCn1c(COc2ccccc2)nnc1SCC(=O)Nc1ccc2c(c1)OCCO2 the results were miR-21 FLuc -5%, GLA inh pH 4.5 -5, Rango complex inh 2.7% and Rango dissoc inh 15%.
Cc1nn(C)c(C)c1CN(C)C(=O)c1nn2c(c1Br)NC(c1cccs1)CC2C(F)(F)F (stereo not given) was read as miR-21 FLuc 1%, GLA inh pH 4.5 0, Rango complex inh -1.9% and Rango dissoc inh -16%.
`Cc1cccc(N=Cc2cc3c(cc2[N+](=O)[O-])OCO3)c1` gave miR-21 FLuc -3%, GLA inh pH 4.5 3, Rango complex inh 0.7% and Rango dissoc inh 2%.
`COc1ccc(-c2cc(C(=O)Nc3cnn(Cc4ccccc4C)c3)no2)cc1OC` gave miR-21 FLuc -3%, GLA inh pH 4.5 2, Rango complex inh 0.7% and Rango dissoc inh 15%.
O=C(/C=C/c1ccccc1)N1CCN(C(=O)c2ccco2)CC1 was read as miR-21 FLuc -16%, GLA inh pH 4.5 -8, Rango complex inh -4.0% and Rango dissoc inh 0%.
Screening COc1cc(CCN2C(=O)c3cccc4cccc(c34)C2=O)c(S(=O)(=O)NCCCO)cc1OC returned miR-21 FLuc -5%, GLA inh pH 4.5 -2, Rango complex inh -1.3% and Rango dissoc inh 1%.
For Cn1c(=O)[nH]c(=O)c2c1nc(N(CCO)Cc1ccccc1)n2CCCc1ccccc1 the results were miR-21 FLuc -17%, GLA inh pH 4.5 -4, Rango complex inh 0.0% and Rango dissoc inh -6%.
Screening COc1cc(CN2CCCC(N3CCN(c4ccccc4C)CC3)C2)cc(Cl)c1O (stereo not given) returned miR-21 FLuc 0%, Rango complex inh -4.9% and Rango dissoc inh 1%.
C[C@H](CO)N1C[C@H](C)[C@@H](CN(C)S(=O)(=O)c2ccccc2)Oc2c(NC(=O)Nc3ccc(C(F)(F)F)cc3)cccc2C1=O was read as Rango complex inh -0.6% and Rango dissoc inh -2%.
`CCc1ccccc1N(CC(=O)NCc1ccco1)C(=O)CCC(=O)Nc1nccs1` gave miR-21 FLuc 0%, Rango complex inh -0.5% and Rango dissoc inh 6%.
CCSc1ccc([C@@H]2[C@H]3C(=O)N(CC)C(=O)[C@H]3[C@]3(C(=O)OC)CCCCN23)cc1 was read as Rango complex inh -1.6% and Rango dissoc inh -21%.
For NC(=O)c1ccsc1NC(=O)COC(=O)c1c(F)cccc1Cl the results were Rango complex inh 0.8% and Rango dissoc inh -11%.
`O=Cc1ccc(OCC(=O)N2CCc3ccccc32)c(Br)c1` gave Rango complex inh -0.1% and Rango dissoc inh 0%.
`O=C(Nc1ccc2c(c1)OCCO2)c1cccs1` gave miR-21 FLuc -39%, GLA inh pH 4.5 3, Rango complex inh 1.1% and Rango dissoc inh -9%.

The last two compounds of the section before open the next one:
`O=Cc1ccc(OCC(=O)N2CCc3ccccc32)c(Br)c1` gave Rango complex inh -0.1% and Rango dissoc inh 0%.
`O=C(Nc1ccc2c(c1)OCCO2)c1cccs1` gave miR-21 FLuc -39%, GLA inh pH 4.5 3, Rango complex inh 1.1% and Rango dissoc inh -9%.
Screening O=C(NNC(=O)[C@@H]1CCCC[C@@H]1C(=O)O)c1cccs1 returned miR-21 FLuc -47%, GLA inh pH 4.5 -3, Rango complex inh -2.4% and Rango dissoc inh 0%.
`COc1ccc(/C=N\Nc2ccccn2)c(OC)c1` gave miR-21 FLuc -57%, Rango complex inh 0.5% and Rango dissoc inh -2%.
`COCC(=O)n1nc(-c2ccccc2)nc1NCc1ccc(N(C)C)cc1` gave miR-21 FLuc -44%, GLA inh pH 4.5 4, Rango complex inh -0.7% and Rango dissoc inh 10%.
`CCCCOC(=O)Nc1cccc(Cl)c1C` gave miR-21 FLuc -49%, GLA inh pH 4.5 4, Rango complex inh 5.1% and Rango dissoc inh 1%.
`Cc1ccc(NC(=O)Cn2c(=O)cnc3ccccc32)cc1S(=O)(=O)N(C)C` gave miR-21 FLuc -3%, GLA inh pH 4.5 9, Rango complex inh 2.8% and Rango dissoc inh -6%.
N#C/C(=C1/CCCCCN1)c1nc2ccccc2s1 was read as miR-21 FLuc -29%, GLA inh pH 4.5 -4, Rango complex inh -1.5% and Rango dissoc inh -28%.
O=C(NCCC1CCCCN1S(=O)(=O)c1ccc(Cl)cc1)C(=O)NCc1ccco1 (stereo not given) was read as Rango complex inh -3.4% and Rango dissoc inh -7%.
Cc1ccc(S(=O)(=O)N(C)C)cc1NC(=O)C1CCCC1 was read as miR-21 FLuc -2%, GLA inh pH 4.5 -1, Rango complex inh -2.0% and Rango dissoc inh -2%.
`Cn1c(SCC(=O)C(C)(C)C)nnc1-c1cccnc1` gave miR-21 FLuc -4%, GLA inh pH 4.5 -10, Rango complex inh 0.5% and Rango dissoc inh 2%.
`C=C(C)CNC(=S)N/N=C/c1c(F)cccc1F` gave miR-21 FLuc -1%, GLA inh pH 4.5 6, Rango complex inh -4.8% and Rango dissoc inh -9%.
`CCOC(=O)c1[nH]ncc1CN1CCN(Cc2ccc(C)cc2)C(CCO)C1` (stereo not given) gave miR-21 FLuc 0%, GLA inh pH 4.5 2, Rango complex inh 0.4% and Rango dissoc inh -15%.
`CCOC(=O)C1CCCN(S(=O)(=O)Cc2ccc(Cl)cc2)C1` (stereo not given) gave miR-21 FLuc -4%, Rango complex inh -0.4% and Rango dissoc inh -2%.
For CCCCOc1ccc(C(=O)N(CC)CC(=O)NCc2cccs2)cc1 the results were miR-21 FLuc 4%, Rango complex inh 0.9% and Rango dissoc inh 13%.
`CCONc1ncnc2nonc12` gave miR-21 FLuc -1%, GLA inh pH 4.5 -6, Rango complex inh 0.3% and Rango dissoc inh -7%.
For NC(=O)CC1C(=O)N(c2ccc(F)cc2)C(=O)N1NC(=O)CCc1ccccc1 (stereo not given) the results were miR-21 FLuc -2%, GLA inh pH 4.5 -4, Rango complex inh 0.6% and Rango dissoc inh 1%.
For O=C(Cc1ccsc1)N1CCN(S(=O)(=O)c2cc(C(F)(F)F)cc(C(F)(F)F)c2)CC1 the results were miR-21 FLuc 0%, Rango complex inh 0.6% and Rango dissoc inh 1%.
`COc1cccc(NC(=O)C2CCN(S(=O)(=O)c3ccc4c(c3)C(C)(C)C(=O)N4C)CC2)c1` gave miR-21 FLuc -1%, Rango complex inh 0.4% and Rango dissoc inh -1%.
`O=C(CN1CCC(Cc2ccccc2)CC1)NC(=O)NCc1ccccc1` gave miR-21 FLuc -9%, GLA inh pH 4.5 -10, Rango complex inh -1.1% and Rango dissoc inh 1%.
For COc1ccccc1N1CCN(C(=O)c2cc3c(-c4ccc(Cl)cc4)nn(C)c3s2)CC1 the results were miR-21 FLuc -2%, GLA inh pH 4.5 -9, Rango complex inh -3.1% and Rango dissoc inh -2%.
COC(=O)CN1C(=O)N/C(=C/c2ccc(OC)c(C)c2OC)C1=O was read as miR-21 FLuc 2%, GLA inh pH 4.5 0, Rango complex inh -5.0% and Rango dissoc inh 3%.
Screening Cc1cc(NS(=O)(=O)c2ccc(NC(=O)c3ccc([N+](=O)[O-])s3)cc2)nc(C)n1 returned Rango complex inh -2.9% and Rango dissoc inh 6%.
For CCN(CC)CCNC(=O)c1ccc(NC(=O)C2CC(=O)N(CCc3ccc(OC)c(OC)c3)C2)cc1 (stereo not given) the results were Rango complex inh -0.4% and Rango dissoc inh 0%.
Screening CC(C)CNC(=O)c1cccc(NC(=O)c2ccccc2-c2ccccc2C(=O)O)c1 returned miR-21 FLuc -2%, Rango complex inh -0.3% and Rango dissoc inh -3%.
Screening Clc1cccc(Cl)c1CSc1nnc2ccccn12 returned miR-21 FLuc -70%, GLA inh pH 4.5 -5, Rango complex inh -1.5% and Rango dissoc inh -2%.
`CC1CCN(c2ccccc2NC(=S)NC(=O)c2ccco2)CC1` gave Rango complex inh 2.3% and Rango dissoc inh 10%.
For COc1cccc(CN(CC(=O)NC2CCCC2)C(=O)c2csnn2)c1 the results were miR-21 FLuc 1%, Rango complex inh -4.5% and Rango dissoc inh 17%.
CCOc1ccc(S(=O)(=O)Nc2ccc3c(c2)c2c(n3S(=O)(=O)c3ccc(OCC)cc3)CCCC2=O)cc1 was read as miR-21 FLuc -2% and GLA inh pH 4.5 -4.
Screening C=CCOC(=O)C1=C[C@@H](c2ccccc2)C[C@@H](OCc2ccc(CO)cc2)O1 returned miR-21 FLuc 16%, GLA inh pH 4.5 -3, Rango complex inh -1.0% and Rango dissoc inh -5%.
Cc1cnc(NC(=O)CSc2nnc(COc3c(C)cccc3C)o2)s1 was read as miR-21 FLuc -11%, GLA inh pH 4.5 -4, Rango complex inh -2.3% and Rango dissoc inh 12%.
Cc1cc(C)c(S(=O)(=O)c2ccccc2C)c(SCC(C)C)n1 was read as miR-21 FLuc -5%, GLA inh pH 4.5 10, Rango complex inh 0.9% and Rango dissoc inh inconclusive.
Screening CCC(=O)Nc1ccnc(-c2cccnc2)n1 returned miR-21 FLuc 1%, GLA inh pH 4.5 -2, Rango complex inh 3.3% and Rango dissoc inh 13%.
Screening Cc1ccc(/C=N/NC(=O)CC(=O)NCc2cccnc2)cc1 returned miR-21 FLuc 0%, GLA inh pH 4.5 1, Rango complex inh -7.4% and Rango dissoc inh 4%.
O=C(Nc1ccc2c(c1)OCCO2)c1cccnc1 was read as miR-21 FLuc -40%, GLA inh pH 4.5 -10, Rango complex inh 2.2% and Rango dissoc inh -7%.
Screening COc1ccccc1C(=O)Nc1ccccc1N1CCOCC1 returned miR-21 FLuc 1%, GLA inh pH 4.5 -15, Rango complex inh 4.3% and Rango dissoc inh -22%.
For COC(=O)C(O)(CC(=O)Nc1ccc(Cl)cc1F)C(F)(F)F (stereo not given) the results were miR-21 FLuc -2%, GLA inh pH 4.5 -4, Rango complex inh 0.1% and Rango dissoc inh -3%.
`CCN(CC(=O)NCc1cccs1)C(=O)c1cccc(S(=O)(=O)N2CCc3ccccc32)c1` gave miR-21 FLuc 4%, GLA inh pH 4.5 3, Rango complex inh 0.2% and Rango dissoc inh 1%.
CC(C)Oc1cccc(C(=O)Nc2ccc(CN3CCOCC3)cc2)c1 was read as miR-21 FLuc 20%, GLA inh pH 4.5 7, Rango complex inh -3.6% and Rango dissoc inh 0%.
Screening Cc1cc(-c2onc(C)c2C(=O)O)no1 returned miR-21 FLuc -2%, GLA inh pH 4.5 -6, Rango complex inh -3.2% and Rango dissoc inh -14%.
Screening O=C1CCC[C@@H]2Cc3[nH]c4c(Cl)ccc(Cl)c4c3[C@@H]3CCN1[C@H]23 returned miR-21 FLuc 5%, Rango complex inh -0.1% and Rango dissoc inh -6%.
`Cc1cccc(C)c1NC(=O)N1C2CCC1CC(O)(c1cccnc1)C2` (stereo not given) gave miR-21 FLuc 0%, GLA inh pH 4.5 8, Rango complex inh -1.6% and Rango dissoc inh 8%.
For CSc1ccc(CNc2nc3ccccc3n3cnnc23)cc1 the results were miR-21 FLuc 3%, GLA inh pH 4.5 -2, Rango complex inh -2.4% and Rango dissoc inh -17%.

Among those listed so far, these have two or more sulfur atoms:
For O=C(Cc1ccsc1)N1CCN(S(=O)(=O)c2cc(C(F)(F)F)cc(C(F)(F)F)c2)CC1 the results were miR-21 FLuc 0%, Rango complex inh 0.6% and Rango dissoc inh 1%.
Screening Cc1cc(NS(=O)(=O)c2ccc(NC(=O)c3ccc([N+](=O)[O-])s3)cc2)nc(C)n1 returned Rango complex inh -2.9% and Rango dissoc inh 6%.
CCOc1ccc(S(=O)(=O)Nc2ccc3c(c2)c2c(n3S(=O)(=O)c3ccc(OCC)cc3)CCCC2=O)cc1 was read as miR-21 FLuc -2% and GLA inh pH 4.5 -4.
Cc1cnc(NC(=O)CSc2nnc(COc3c(C)cccc3C)o2)s1 was read as miR-21 FLuc -11%, GLA inh pH 4.5 -4, Rango complex inh -2.3% and Rango dissoc inh 12%.
Cc1cc(C)c(S(=O)(=O)c2ccccc2C)c(SCC(C)C)n1 was read as miR-21 FLuc -5%, GLA inh pH 4.5 10, Rango complex inh 0.9% and Rango dissoc inh inconclusive.
`CCN(CC(=O)NCc1cccs1)C(=O)c1cccc(S(=O)(=O)N2CCc3ccccc32)c1` gave miR-21 FLuc 4%, GLA inh pH 4.5 3, Rango complex inh 0.2% and Rango dissoc inh 1%.

From PubChem
